GIRK2 activ = GIRK2 channel activation. calls only for hits at 25 µM. HEK293-GIRK2 thallium flux, Thallos fluorescence. 63,000 compounds, 0.05% hits. P48051;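 active means among the strongest 0.2% of first-round signals and kept after retests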;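 further: first round at about 10 µM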
Target sequence (P48051 whole entry, looked up): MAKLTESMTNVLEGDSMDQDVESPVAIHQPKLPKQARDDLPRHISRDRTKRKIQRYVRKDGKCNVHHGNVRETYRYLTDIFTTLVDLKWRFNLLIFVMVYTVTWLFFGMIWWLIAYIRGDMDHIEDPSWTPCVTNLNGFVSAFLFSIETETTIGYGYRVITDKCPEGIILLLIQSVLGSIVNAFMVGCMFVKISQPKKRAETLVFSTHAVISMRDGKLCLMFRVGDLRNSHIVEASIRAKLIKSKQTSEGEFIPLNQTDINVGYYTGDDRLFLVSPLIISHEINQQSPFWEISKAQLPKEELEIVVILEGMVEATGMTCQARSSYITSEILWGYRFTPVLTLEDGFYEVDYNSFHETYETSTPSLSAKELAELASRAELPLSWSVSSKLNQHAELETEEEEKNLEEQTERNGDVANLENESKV
Calls only; i = inactive. Some of the compounds tested (hit frequency here may not be typical).

GIRK2 activ	molecule
i	COc1cccc(C(=O)N2CCC(c3ccccc3)C2)c1OC (centres undefined)
i	O=C(O)CCNC(=O)CSc1cnc2ccccc2n1
i	NS(=O)(=O)c1ccc(Nc2cc(-c3cccc(O)c3)[nH]n2)cc1
i	CCOC(=O)N1CCN(CC(O)COCC2CC3CCC2C3)CC1 (centres undefined)
i	O=C(Cc1cccs1)NC1CCCC(OC(=O)Nc2ccc(F)cc2)C1 (centres undefined)
i	O=C(NCc1ccco1)C(=O)Nc1ccc(N2CCCS2(=O)=O)cc1
i	Cc1cn2c3c(=O)n(Cc4ccc(Cl)cc4Cl)c(=O)n(C)c3nc2n1CCCl
i	CC1Oc2ccccc2C=C1/C=C1\Oc2cc(O)ccc2C1=O (centres undefined)
i	O=C(Cc1cc(=O)[nH]c(SCc2ccccc2)n1)NCC1CCCCC1
i	Cc1nc(-c2ccco2)sc1CNC(=O)/C=C/c1ccc2c(c1)OCO2
i	Cc1ccc(C)c(CN2CCN(CCn3c(C)cn4c5c(=O)[nH]c(=O)n(C)c5nc34)CC2)c1
i	CCc1ccc(-n2nnc(C(=O)N3CCCc4ccccc43)c2C)cc1

The results go on:
GIRK2 activ	molecule
i	CCOc1ccc(N2CCN(CC(=O)Nc3cc(C(F)(F)F)ccc3Cl)C2=O)cc1
i	Cc1noc(CNC(=O)c2cc(-c3cccs3)[nH]n2)n1
i	Cc1ccc(C(=O)NCCCS(=O)(=O)N2CCN(c3ccc(F)cc3)CC2)cc1C
i	CC(C)(C)c1ccc(NC(=O)CCl)cc1
i	Cc1cc(C(=O)Nc2nc(C(=O)NCc3cccnc3)co2)no1
i	COc1ccc(-c2n[nH]n3c2nc(=O)c2ccc(C(=O)NCc4ccc5c(c4)OCO5)cc23)cc1
i	COc1ccc(-c2coc3cc(OCC(=O)c4ccccc4)ccc3c2=O)cc1
i	COc1cc(OC)c(NC(=O)COc2cc(=O)n3ccccc3n2)cc1Cl
i	CCCn1c(=O)c2c(nc3n2CC(C)=NN3CC(=O)OCC)n(C)c1=O
i	CS(=O)(=O)c1ccc(-c2nnc(SCC(=O)c3ccccc3)o2)cc1
i	O=C(c1cc(C2CC2)on1)N1CCN(c2ncccn2)CC1
i	COc1ccccc1N1CCN(C(=O)CCc2nnc3n(CCc4ccccc4)c(=O)c4ccccc4n23)CC1

(cont.)
GIRK2 activ	molecule
i	COc1cccc(C2C(C(=O)OCc3ccccc3)=C(C)Nc3ncnn32)c1 (centres undefined)
i	CCOC(=O)c1ccc(NC(=O)Cn2c(C)nc3c(c2=O)CCCC3)cc1
i	CCCc1nnsc1C(=O)NCCc1ccoc1
i	CCCNC(=O)CSc1nc2c(c(=O)n(Cc3ccc(C)cc3)c(=O)n2C)n1C
i	Cc1cc(C)cc(NC(=O)N2CCCCCC2)c1
i	COc1ccc(N2C=C(C#N)S(=O)(=O)c3c(F)cccc32)c(OC)c1
i	Cc1cc(C)n(-c2ncc(NC(=O)C3CCCC3)cn2)n1
i	O=C(Cn1cccc(-c2nc(-c3ccsc3)no2)c1=O)NCCC1=CCCCC1
i	CN(C)C(CNC(=O)c1cc(-c2ccc(F)cc2)nn1C)c1ccc2c(c1)CCO2 (centres undefined)
i	CC1CC(C)CN(c2ncnc3c2cnn3Cc2ccccc2Cl)C1 (centres undefined)
i	CCc1ccc(S(=O)(=O)N2CCC(OC)CC2)cc1
i	COc1ccccc1CCNC(=O)Cn1ccc2ccccc21

Other records
GIRK2 activ	molecule
i	CC1(C)OCC2(CO1)CN(C(=O)c1ccccc1C(=O)c1ccccc1)C2
i	CCCCN(C(=O)c1cc2c(=O)n3ccccc3nc2n1CCCOC)c1ccccc1
i	CC(C)CCNC(=O)CSC1=NNC2C3CC(c4ccccc4)NN3C=CN12 (centres undefined)
i	Cc1ccc2c(-c3ccnc(Nc4ccc5c(c4)OCCO5)n3)c(-c3ccc(C(F)(F)F)cc3)nn2n1
i	C=CCNC(=O)c1nnn(-c2ccc(Cl)cc2)c1-c1cccnc1
i	COCCc1nnc(NC(=O)CSc2ccc(F)cc2)o1
i	Cc1ccc(CNC(=O)c2cccc(-n3ccnc3SCC(=O)Nc3ccc(F)cc3F)c2)o1
i	CCN1CC(c2nc3ccccc3n2Cc2ccc(C)cc2)CC1=O (centres undefined)
i	COc1ccc(-c2n[nH]n3c2nc(=O)c2ccc(C(=O)NCc4ccc(OC)cc4OC)cc23)cc1
i	Cc1ccc(S(=O)(=O)N2CCN(c3ccc(Cl)c(Cl)c3)CC2)cc1
i	O=c1c(O[C@@H]2O[C@H](CO)[C@@H](O)[C@H](O)[C@H]2O)c(-c2ccc(O)c(O)c2)oc2cc(O)cc(O)c12
i	COc1ccc(CNC(=O)C(=O)Nc2ccc(N3CCCS3(=O)=O)cc2)cc1

Other compounds
GIRK2 activ	molecule
i	CCOc1ccc(CC(=O)N2CC(c3nc4ccccc4[nH]3)C2)cc1
i	COc1ccc(CNC(=O)C(=O)c2cn(CC(=O)N3CCOCC3)c3ccccc23)cc1
i	Cc1nc(-c2ccccc2F)sc1CNC(=O)c1c(F)cccc1F
i	COc1ccc(SCCCC(=O)Nc2nc3ccc([N+](=O)[O-])cc3s2)cc1
i	CC(=O)OC1CC2C(COC(=O)CC(C)C)=COC(OC(=O)CC(C)C)C2C1(O)CCl (centres undefined)
i	COc1ccc(SCC2CCN(C(=O)c3ccc(S(=O)(=O)N(C)C)cc3)CC2)cc1
i	CC(Cc1ccco1)NC(=O)NC12CC3CC(CC(C3)C1)C2 (centres undefined)
i	Cc1ccc(Cn2c(OC(C)C)nc3c2c(=O)n(C)c(=O)n3C)cc1
i	Cc1cccc(S(=O)(=O)NCCC(O)c2ccc3c(c2)OCO3)c1 (centres undefined)
i	COc1ccccc1-n1nnc(C(=O)NCc2ccccn2)c1C
i	O=C(CN1CCc2nc(NC(=O)c3ccoc3)sc2C1)Nc1ccc2c(c1)OCCO2
i	COc1cccc(CNC(=O)c2ccc(Cn3c(C)nc4ccccc43)o2)c1

(more compounds)
GIRK2 activ	molecule
i	O=C(NCCC(O)C1CC1)C(=O)Nc1ccon1 (centres undefined)
i	COC(=O)N1CCc2ccc(F)cc2C1C(=O)NC(C)(C)CO (centres undefined)
i	COc1ccc(OC)c(NC(=O)c2cc3ccccc3c(=O)s2)c1
i	COc1ccc(C2CC3C4NN=C(SCC(=O)N5CCCc6ccccc65)N4C=CN3N2)cc1 (centres undefined)
i	COc1ccc(NC(=O)Cn2cccc(S(=O)(=O)N3CCCCCC3)c2=O)cc1
i	CCOc1ccccc1NC(=O)/C=C/c1ccc(OC)c(OC)c1
i	O=C(Nc1ccc2cn[nH]c2c1)c1cnn2c1OCCC2
i	Cc1cc(C)n(-c2cc(N3CCN(C(=O)Cc4ccccc4)CC3)nc(C)n2)n1
i	Cc1ccc(NC(=O)Cn2cnc3c(oc4ccccc43)c2=O)c(Br)c1
i	COc1ccc(NC(=O)Cn2c(C)nc3c(c2=O)CN(Cc2ccccc2)CC3)cc1OC
i	CCOc1ccc(CC(=O)Nc2cc(N3CCN(c4ccccc4)CC3)ncn2)cc1
i	O=C(Nc1ccc(Cn2cnc(C(=O)O)c2)cc1)c1ccc(Cl)cc1

Additional entries
GIRK2 activ	molecule
i	Cc1c(Cl)cccc1S(=O)(=O)N1CCC(COCc2ccc(C#N)cc2)CC1
i	O=C(Cn1cccc1-c1nc(-c2cccc(Cl)c2)no1)N1CCOCC1
i	COc1ccccc1N1CCN(CCNC(=O)C(=O)Nc2ccon2)CC1
i	CCCCS(=O)(=O)N1CCN(CC(=O)c2ccco2)CC1
i	C[C@@H](c1ccccc1)[C@@H](C(=O)Nc1ccc(I)cc1F)N1C(=O)N[C@H](c2ccc(OC[C@H](O)CO)cc2)C1=O
i	N#C/C(=C\c1cccnc1)c1nc2ccc(Cl)cc2c(=O)[nH]1
i	C[N+]1(CC(O)COC23CC4CC(CC(C4)C2)C3)CCOCC1 (centres undefined)
i	CC(=O)c1ccc(N2CCN(C(=O)CCc3nnc4n(CCc5ccccc5)c(=O)c5ccccc5n34)CC2)cc1
i	Cc1ccccc1C(=O)NC1CCN(C(=O)c2cn(-c3ccc(Cl)cc3)nn2)CC1
i	COC(=O)COc1ccc2cc(-c3ccc(OC)cc3OC)c(=O)oc2c1
i	Cc1cc(=O)n2[nH]c(C)c(-c3ccccc3)c2n1
i	O=C(Cn1nc(-c2ccco2)ccc1=O)c1ccc(Cl)cc1

Next structures follow.
GIRK2 activ	molecule
i	Cn1nc(N2CCC(C(=O)Nc3ccc(S(=O)(=O)Nc4nccs4)cc3)CC2)ccc1=O
i	Cc1cnc2n(c1=O)CC(C(=O)N1CCN(C3CCCCC3)CC1)CS2 (centres undefined)
i	Cc1noc(C)c1CCC(=O)N1CCCC(c2nnc(C(F)(F)F)o2)C1 (centres undefined)
i	O=C(NCc1ccc(Cl)cc1)C(=O)NCC1CCN(Cc2cccs2)CC1
i	O=C(NCCS(=O)(=O)NCCC1=CCCCC1)c1ccc2c(c1)OCO2
i	COc1ccc(Cl)cc1NC(=O)Cn1cccc(-c2nc(-c3ccc(OC)c(OC)c3)no2)c1=O
i	CC(C)CNC(=O)CCn1c(=O)c2ccccc2n2c(SCC(=O)NCc3cccs3)nnc12
i	O=c1ccc(-c2ccc3c(c2)OCO3)nn1CCc1nc(-c2cccs2)no1
i	CCOc1ccc(-c2ccc(=O)n(CCNS(=O)(=O)c3ccc(F)c(C(F)(F)F)c3)n2)cc1
i	CC(=O)CC1(O)C(=O)N(CCCOc2cccc3ccccc23)c2ccccc21 (centres undefined)
i	CSc1ncc(Cl)c(C(=O)NC(c2ccccc2)c2ccccc2)n1
i	Cn1c(=O)[nH]c(=O)c2c1nc1n(-c3ccc(Cl)cc3)c(-c3ccc(F)cc3)cn21

Other entries follow.
GIRK2 activ	molecule
i	COc1cccc(C(=O)Nc2ccc(-n3c(C)nc4ncccc4c3=O)cc2)c1
i	CNC(=O)Cn1c(=O)c2oc3ccccc3c2n(Cc2ccc(C#N)cc2)c1=O
i	Cn1nc(-c2ccc(F)cc2)cc1C(=O)Nc1ccc2c(c1)N(C(=O)c1cccs1)CC2
i	CCOc1ccc(N(C)S(=O)(=O)c2ccsc2C(=O)Nc2cccc(F)c2)cc1
i	O=C(NCC1CCN(C(=O)Nc2ccc(F)cc2)CC1)c1cc(C2CC2)on1
i	COC1=CC(=O)c2c(cc(OC)c(C(C)OC(C)=O)c2O)C1=O (centres undefined)
i	CCCCCn1c(=O)c2ccccc2n(Cc2nc(-c3ccc(OC)cc3)no2)c1=O
i	CCNC(=O)c1cn(-c2ccc(SCC(=O)Nc3ccc(C)cc3)nn2)cn1
i	Cc1nnc(SCC(=O)c2ccc(Oc3ccccc3)cc2)s1
i	COC(=O)Nc1nc2c(s1)CN(C(=O)NCc1cccs1)CC2
i	O=C(O)CCc1ccc(O)cc1O
i	COc1cccc(NC(=O)Nc2ccc3c(c2)C(=O)N(C)c2cc(C)ccc2O3)c1

Shown in markdown: 5 of the compounds above
| Compound | GIRK2 activ |
| --- | --- |
| O=C(O)CCc1ccc(O)cc1O | i |
| Cn1nc(-c2ccc(F)cc2)cc1C(=O)Nc1ccc2c(c1)N(C(=O)c1cccs1)CC2 | i |
| CCNC(=O)c1cn(-c2ccc(SCC(=O)Nc3ccc(C)cc3)nn2)cn1 | i |
| O=C(NCC1CCN(C(=O)Nc2ccc(F)cc2)CC1)c1cc(C2CC2)on1 | i |
| COC(=O)Nc1nc2c(s1)CN(C(=O)NCc1cccs1)CC2 | i |

(further entries)
GIRK2 activ	molecule
i	Cc1ccc2c(=O)cc(-c3ccc(Cl)cc3)oc2c1
i	CS(=O)(=O)N1CCN(CCNC(=O)NCc2cccs2)CC1
i	COc1cc(CCN2C(=O)c3cccc4cccc(c34)C2=O)c(S(=O)(=O)N2CCCC2)cc1OC
i	CCCCCC(O)/C=C/C1C(O)CC(O)[C@H]1C/C=C\CCCC(=O)O (some centres undefined)
i	O=C(CNS(=O)(=O)c1ccc(F)c(Cl)c1)N1CCCCCC1
i	Cc1ccc(N2N=C(C(=O)N3CCOCC3)S(=O)(=O)c3cc(F)ccc32)cc1
i	COc1ccc(C)cc1N/C=C(\C#N)c1nc2ccccc2s1
i	Cc1nc(C)n2c(=O)n(CC(=O)Nc3ccc4c(c3)OCCO4)nc2c1C
i	COc1ccc(-c2cn3c(C(=O)Nc4nc(C)cs4)csc3n2)cc1
i	O=C(Cn1nc2c(N3CCOCC3)nccn2c1=O)NCc1cccs1
i	Cc1csc(CN2CCN(C(=O)c3cccc(Cl)c3)CC2)n1
i	O=C(Nc1nc2c(s1)CN(S(=O)(=O)C1CC1)CC2)c1ccc(Cl)s1

Among those listed so far, these contain a CF3 group.
GIRK2 activ	molecule
i	CCOc1ccc(N2CCN(CC(=O)Nc3cc(C(F)(F)F)ccc3Cl)C2=O)cc1
i	Cc1ccc2c(-c3ccnc(Nc4ccc5c(c4)OCCO5)n3)c(-c3ccc(C(F)(F)F)cc3)nn2n1
i	Cc1noc(C)c1CCC(=O)N1CCCC(c2nnc(C(F)(F)F)o2)C1 (centres undefined)
i	CCOc1ccc(-c2ccc(=O)n(CCNS(=O)(=O)c3ccc(F)c(C(F)(F)F)c3)n2)cc1

Going on with the list:
GIRK2 activ	molecule
i	COc1ccc(CCNC(=O)CN2CCC(COCc3ccc(F)cc3)CC2)cc1OC
i	COc1cc(C)c(Cl)cc1S(=O)(=O)NCCN1CCOCC1
i	Cc1ccc(NC(=O)c2cnn(-c3ccccc3)n2)cc1N1CCCC1=O
i	Cc1cn2c3c(=O)n(Cc4ccccc4Cl)c(=O)n(C)c3nc2n1CCOCCO
i	COc1cccc(N(C)S(=O)(=O)c2ccsc2-c2nc(-c3ccc4c(c3)OCO4)no2)c1
i	CSc1ccccc1NC(=O)C(C)Cn1nc(-c2ccco2)ccc1=O (centres undefined)
i	O=C(NCCc1ccoc1)NCc1ccccc1
i	NC(=O)c1ccc(NC(=O)/C=C/c2ccc(Cl)cc2)cc1
i	CCOc1ccccc1Oc1coc2cc(OC(=O)N(CC)CC)ccc2c1=O

Screening results deposited in PubChem by Vanderbilt University.
